Yeast UUG start = modulators of start codon recognition fidelity in yeast; activity score, % at 18.7 µM; S. cerevisiae UUG-firefly luciferase reporter, luminescence/redox ratio; 350,000 tested, 0.13% active;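 active means replicate mean at a twofold rise or more, about +100% in these data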;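 further: firefly luciferase made from a UUG start codon reports start codon fidelity; reporter light over untreated wells divided by growth signal over untreated wells; some hits fall short of that in this replicate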
Rce1 inh = yeast Ras-converting enzyme inhibition; Q03530; yeast membranes, quenched prenylated peptide cleavage fluorescence; calls only; 290,000 tested, 0.27% active; AID 2563;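 active means fall in fluorescence gain of 50% or more versus controls, with final raw signal at or below 3038400; inconclusive means same 50% fall but final raw signal above 3038400; inactive means fall in fluorescence gain under 50%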;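 further: plate controls were neutral control wells for no effect and wells lacking membranes for full effect; tested at 10 µM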
eIF4H inh = inhibitors of RNA binding by human eIF4H | Q15056 | eIF4H fluorescence polarization binding assay | inhibition, % at 35 µM | 290,000 tested, 0.94% active | AID 2012;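 active means 50% or more with normal probe brightness, or confirmed in later tests; inconclusive means above 50% with abnormal brightness, or retests that disagree; inactive means below 50% or failed in later tests; about a fifth of its hits are not listed in these tables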;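 further: calls also rest on retests at 20 µM and on dose response follow-up; 0% = protein and probe with vehicle and 100% = probe without protein; strong numbers were not always called active; many hits fall short of the cut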
CSC inhib = blocks cancer stem cells. cancer stem cell-like cells viability, luminescence. AID 2717. inhibition, % at 7.5 µM. 300,000 tested, 1.1% active;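 active means mean at 75% or more and at least half the replicates too; inconclusive means mean and replicates disagree; tested in HMLE shEcad cells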;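 further: 0% = median of negative and 100% = median of positive control wells; the first replicate is given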
PABP polyA inh = PABP-poly(A) binding inhibition; P11940; PABP-poly(A) RNA binding, fluorescence polarization; inhibition, % at 35 µM; 290,000 tested, 1% active; AID 2014;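 active means 50% or more with normal probe brightness, or confirmed in later tests; inconclusive means above 50% with abnormal brightness, or retests that disagree; inactive means below 50% or failed in later tests; about a fifth of its hits are not listed in these tables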;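 further: calls also rest on retests at 20 µM and on dose response follow-up; controls were probe without protein and protein plus probe with vehicle; some compounds called inactive have numbers as strong as hits; many hits fall short of the cut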
Target sequence (P11940 whole entry, looked up): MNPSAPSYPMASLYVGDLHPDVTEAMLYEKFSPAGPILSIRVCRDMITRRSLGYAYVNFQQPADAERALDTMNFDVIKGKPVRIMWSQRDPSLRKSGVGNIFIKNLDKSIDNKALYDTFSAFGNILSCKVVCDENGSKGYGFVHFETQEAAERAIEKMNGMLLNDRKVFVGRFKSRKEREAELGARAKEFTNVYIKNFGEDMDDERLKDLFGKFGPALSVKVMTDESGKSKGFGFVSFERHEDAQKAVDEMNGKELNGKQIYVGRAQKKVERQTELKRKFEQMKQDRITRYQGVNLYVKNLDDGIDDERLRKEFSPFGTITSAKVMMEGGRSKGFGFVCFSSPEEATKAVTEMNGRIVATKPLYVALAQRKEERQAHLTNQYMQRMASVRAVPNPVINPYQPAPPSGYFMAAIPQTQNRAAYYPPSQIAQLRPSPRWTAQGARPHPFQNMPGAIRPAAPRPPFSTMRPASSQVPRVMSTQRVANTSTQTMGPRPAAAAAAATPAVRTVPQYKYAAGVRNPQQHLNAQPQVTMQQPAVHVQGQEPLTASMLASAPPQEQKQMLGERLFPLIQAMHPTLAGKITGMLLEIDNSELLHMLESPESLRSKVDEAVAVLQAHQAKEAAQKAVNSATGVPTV
MT1-MMP act inh = blocks activation of human MT1-MMP | 360,000 tested, 0.061% active | AID 651647 | HT1080 RFP-PRO-GFP cells, GFP/RFP ratio fluorescence, overnight; percent of plate control window, DMSO zero | GFP/RFP ratio change, % at 20 µM;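 active means GFP/RFP ratio change of at least 30% with cell ATP level not reduced by more than half and red fluorescence within 50% of control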; further: strong numbers were not always called active
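Material: RFP-PRO-GFP reporter HT1080 cells. Dosing: single-point 20 µM compound, 1% DMSO. Controls: DMSO and RFP-L50D-GFP cell wells. Timing: cells overnight before dosing, compound overnight, 37 °C, 5% CO2. Measure: GFP/RFP fluorescence ratio.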
HIV Env fusion = blocks HIV Env-driven cell-cell fusion. HeLa-JRFL Env/CEM21 cell fusion, luciferase. inhibition, % at 12.3 µM. 360,000 tested, 1.1% active;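 active means mean replicate inhibition score of at least 50 and every replicate individually at or above 50; inconclusive means only one of the two criteria met; inactive means mean below 50 and not all replicates reaching 50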;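 further: 0% = plate neutral controls and 100% = maraviroc near 300 nM; one replicate is shown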
MT1-MMP act inh RFP = further read-out of MT1-MMP act inh, marked with its call; RFP signal change, %; measured here: RFP expression control read;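 0 = vehicle wells; hits needed this value within 50% of zero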
* = called active by the depositor; i = inactive; ? = inconclusive; nt = not tested or not shown; + = active, no number.

SMILES	Yeast UUG start	Rce1 inh	eIF4H inh	CSC inhib	PABP polyA inh	MT1-MMP act inh	MT1-MMP act inh RFP	HIV Env fusion
COc1ccc(-c2[nH]c(-c3cc(OC)c4c(c3)OCO4)nc2-c2ccccc2)cc1	-9	i	-4	73	-22	-4	-14	-5
Cc1cc(C)cc(OCC(=O)Nc2cnn(CCCC(=O)O)c2)c1	-16	i	7	-15	10	-1	5	-3
COC(=O)N1CCN(c2ccc(C)c(C)c2)CC1	nt	i	18	-4	2	nt	nt	nt
CCC(NS(=O)(=O)c1ccc(C)cc1)C(=O)N1CCOCCOCCOCC1 (stereo unspecified)	1	i	-3	0	1	1	5	-3
CC(=O)N/C(=C\c1ccccc1)C(=O)N1CCOCC1	nt	i	3	nt	-4	1	0	-66
CN(CC(=O)Nc1ccccc1Cl)C(=O)COC(=O)c1ccc([N+](=O)[O-])s1	12	nt	nt	6	nt	0	3	0
C=CC[C@@H](CC(=O)N[C@@H](CO)Cc1ccccc1)C(=O)N[C@@H](COC(=O)[C@@H](CC=C)CC(=O)OC(C)(C)C)Cc1c[nH]c2ccccc12	5	nt	nt	-4	nt	-17	-12	-28
O=c1oc2ccccc2c(Nc2cccc3cccnc23)c1[N+](=O)[O-]	nt	i	48	0	25	-11	-4	11
Cc1nc2ccc(NC(=O)c3ccc(Cl)c(NC(=O)c4cccs4)c3)cc2s1	-2	i	-9	2	-5	0	0	nt
CCNC(=O)COC(=O)c1cc(-c2ccco2)nc2ccccc12	-13	nt	89*	-9	69*	-4	2	-26
Cn1nnnc1SCC(=O)Nc1ccccc1N1CCOCC1	-18	i	-6	-1	-12	9	4	nt
CN(C)c1nccc(Nc2ccccc2)c1C#N	8	i	1	-15	-1	9	-4	nt
COCCNc1oc(-c2ccccc2Cl)nc1C#N	-4	i	0	-11	-6	1	1	-16
CN1C(=O)c2cccc(NC(=O)C3CCCCC3)c2C1=O	-1	i	-2	4	5	-1	1	23
COc1ccccc1NC(=O)C(C/C=C(\C)Cl)C(C)=O (stereo unspecified)	-3	i	-7	0	-2	18	1	nt
COc1ccc2c(c1)c1ncn(CCN3CCCC3)c(=O)c1n2C	-2	+	-11	-8	-7	8	2	26
CCCC(c1nnnn1CS(=O)(=O)c1ccc(C)cc1)N1CCC(C(N)=O)CC1 (stereo unspecified)	3	i	2	-5	-3	-2	-2	-2
Cc1nnc(SCc2ccccc2CSc2nnc(C)s2)s1	nt	i	2	-9	8	0	-2	3
COc1ccccc1C1/C(=C(/O)c2ccc(C)cc2)C(=O)C(=O)N1Cc1ccco1 (stereo unspecified)	nt	i	-1	-9	1	3	0	1
NC(=O)C1CCN(Cc2nc(-c3cccs3)no2)CC1	nt	nt	-5	-9	-6	2	2	8
COC(=O)[C@@]1(C)[C@H]2C(=O)N(Cc3ccccc3)C(=O)[C@H]2[C@H]2CN=C(SCC3CC3)N21	-6	nt	nt	nt	nt	2	0	84*
COc1ccc(CN2C(=O)C(C)N(C(=O)c3c(F)cccc3F)c3ccccc32)cc1 (stereo unspecified)	nt	i	8	16	-11	-1	-5	25
Cc1cccc(NS(=O)(=O)c2cc(C(=O)N3CCc4ccccc4C3)ccc2Cl)c1C	0	i	-1	7	1	-7	-8	nt
CN1CCN(C(=O)CN(Cc2ccccc2)S(C)(=O)=O)CC1	-6	i	-9	-16	1	-2	4	-43

Overlap with the part before: three entries; new compounds follow.
SMILES	Yeast UUG start	Rce1 inh	eIF4H inh	CSC inhib	PABP polyA inh	MT1-MMP act inh	MT1-MMP act inh RFP	HIV Env fusion
COc1ccc(CN2C(=O)C(C)N(C(=O)c3c(F)cccc3F)c3ccccc32)cc1 (stereo unspecified)	nt	i	8	16	-11	-1	-5	25
Cc1cccc(NS(=O)(=O)c2cc(C(=O)N3CCc4ccccc4C3)ccc2Cl)c1C	0	i	-1	7	1	-7	-8	nt
CN1CCN(C(=O)CN(Cc2ccccc2)S(C)(=O)=O)CC1	-6	i	-9	-16	1	-2	4	-43
CCO[C@@H]1OC(C(=O)NCc2nc3ccccc3[nH]2)=C[C@H](c2coc3ccccc3c2=O)[C@H]1CCCO	2	i	nt	-5	nt	1	1	-7
CCN(C[C@H]1N[C@@](CC)(C(=O)OC)[C@H]2C(=O)N(Cc3ccccc3)C(=O)[C@@H]12)C(=O)Nc1ccc(C(F)(F)F)cc1	-1	nt	nt	-4	nt	2	2	50
COCCCNC(=O)CNC(=O)c1nn(-c2ccc(OC)cc2OC)c(=O)c2ccccc12	nt	i	-8	-3	-6	3	5	-7
CCOC(=O)C1CCN(C(=S)Nc2cccc(C)c2)CC1	-24	i	-7	8	1	-5	-1	nt
O=C(Cn1cnc2ccccc21)c1ccc(Cl)cc1	-15	i	6	8	7	1	-6	6
CC1(C)CC(NC(=O)c2ccccc2)CC(C)(C)N1	6	i	-9	-11	10	-3	2	1
C/C(=N\NC(=O)c1cnccn1)c1ccc([N+](=O)[O-])cc1	nt	i	-4	-9	-1	3	0	-2
COc1ccc(/C=N/NC(=O)C2C(=O)NCC2c2ccccc2)c(OC)c1 (stereo unspecified)	-57	i	0	-19	-9	-2	-1	-7
Cc1onc(-c2ccccc2Cl)c1C(=O)N1CCN(C/C=C/c2ccccc2)CC1	-6	i	2	2	2	-3	-6	nt
COc1ccccc1CNC(=O)/C=C/C(=O)O	-12	i	-8	1	0	-1	-1	-3
CCN(CC)CCN1C(=O)C(O)=C(C(=O)c2cc3cccc(OC)c3o2)C1c1cccs1 (stereo unspecified)	nt	i	-3	-2	4	nt	nt	nt
CCOc1ccc(N(C)c2ccc(/C=C3/SC(=S)NC3=O)cc2)cc1	-4	i	?	97*	?	-91	16	7
O=C(CN(Cc1cccs1)C(=O)CSc1nnc(COc2ccccc2)o1)NC1CCCC1	-12	i	-5	7	-5	-1	4	nt
CCCCCCCC(=O)N1c2ccccc2NC(=O)C1CC(=O)Nc1ccc(C(=O)O)cc1 (stereo unspecified)	-2	i	1	-13	-17	1	-4	-2
CN(CC(=O)Nc1ccc(F)cc1)C(=O)COC(=O)Cc1c(F)cccc1Cl	4	i	nt	-3	nt	-2	-1	nt
Cc1cc(C)cc(N2CC(C(=O)NC3CCCCC3)CC2=O)c1 (stereo unspecified)	-8	nt	-13	-21	1	1	4	21
CSc1nc2nc(C)c(CCC(=O)OCC(=O)Nc3ccc(F)cc3)c(C)n2n1	-2	nt	nt	nt	nt	0	-3	-4
COc1ccccc1C(=O)NCCC(=O)NCC(C)(C)N1CCOCC1	-16	i	-7	nt	7	-4	1	-4
COc1cc(/C=C/C(=O)O)cc(S(=O)(=O)Nc2cc(C(F)(F)F)ccc2N2CCOCC2)c1OC	-3	nt	nt	-6	nt	-1	0	nt
CC(=O)Nc1nnc(SCC(=O)NCC2CCCO2)s1 (stereo unspecified)	-11	i	3	-11	40	2	3	nt
O=C(COc1ccccc1[N+](=O)[O-])Nc1ccc2c(c1)CCC2	16	nt	nt	-3	nt	3	-2	-18
COc1ccc(CNC(=O)CSc2n[nH]c(C)c2[N+](=O)[O-])cc1	nt	i	-13	-21	3	1	2	8
COc1ccc(S(=O)(=O)N2CCOCC2)cc1NC(=O)CSc1nnc(C2CC2)n1C1CC1	0	nt	nt	nt	nt	-2	2	-2
Cc1ccc(S(=O)(=O)NCCC(=O)Nc2cc(F)ccc2C)cc1C	-10	i	-1	nt	-12	-2	0	24
CC1CC(=O)N(c2ccc(Br)cc2)C(=O)C1	nt	i	-4	-8	-2	0	6	7
CC(C)c1nnc(NC(=O)CSc2nnc(-c3ccco3)o2)s1	nt	i	-5	7	8	-8	-2	0
COC(=O)c1c(NC(=O)C2CCCO2)sc2c1CCC2 (stereo unspecified)	0	i	9	-15	7	-1	2	nt
COc1cc2c(cc1OC)C(C)N(C(=O)c1cc3c(s1)-c1ccccc1OC3)CC2 (stereo unspecified)	-41	i	-12	29	-2	-5	3	32
O=C(Nc1ccc(S(=O)(=O)N2CCc3ccccc3C2)cc1)c1ccccc1	nt	i	-15	23	-4	5	-13	22
CCCNc1c(NS(=O)(=O)c2ccc(Br)cc2)c(=O)oc2ccccc12	-12	i	1	-20	6	0	0	-10
CN(C)CCNC(=O)c1[nH]nc2c1CCc1ccccc1-2	-21	i	-8	-16	-6	1	1	-16
Cc1cc(C)cc(NC(=O)C(=O)NCc2ccccn2)c1	nt	i	-2	-13	-11	2	5	-23
COc1cccc2cc(C(=O)NCc3ccccn3)c(=O)oc12	-12	i	-5	-7	-15	1	5	nt
CCCn1c(CC)nc([N+](=O)[O-])c1Sc1ccc(F)cc1	nt	i	4	1	1	3	-7	17
Cc1ccc(NCc2nnc(SCC(=O)N(Cc3ccccc3)C(C)(C)C)o2)c(C)c1	2	i	-8	35	0	-1	-3	25
CC(C)(CSc1ccccn1)NS(=O)(=O)c1ccc(Cl)cc1	-7	i	7	-11	7	-1	0	24
CC(C)C(=O)Nc1ccc(-c2nc3ccccc3c(=O)o2)cc1	0	i	0	-11	2	2	1	5
COc1ccc(C(CC(=O)Nc2ccc(F)cc2)c2ccccc2)cc1 (stereo unspecified)	-19	i	-1	nt	-6	0	-2	nt
Cc1csc(NC(=O)CSC2=NCCS2)n1	-18	i	-6	1	-12	1	0	-4
O=C(NN=C1CCCC1)c1sc2ccccc2c1Cl	nt	i	-7	-1	-17	-1	3	-17
Cc1ccccc1NC(=O)CSc1nnc(CNC(=O)c2ccco2)n1C	-9	i	nt	10	nt	-3	-2	-1
Cc1ccc(S(=O)(=O)NCC(C)n2nc(C)nc2C)cc1 (stereo unspecified)	-9	nt	-1	-9	7	0	2	-8
CCN(CC)c1ccc(C(=S)N2CCN(c3ccccc3)CC2)cc1	-33	i	11	-4	19	-4	-2	-27
Cc1ccc(N2CC(C(=O)NCc3ccc4c(c3)OCO4)CC2=O)cc1C (stereo unspecified)	-22	i	1	-4	-5	2	4	-10
COCc1cc(C)[nH]c(=O)c1C(=O)NC12CC3CC(CC(C3)C1)C2	nt	i	-3	2	0	-10	-2	-9
CCN1CCN(CCNC(=O)c2ccc(CS(=O)c3ccc(Cl)cc3)o2)CC1 (stereo unspecified)	5	i	0	0	16	2	4	2
C[C@@H]1CN(C(=O)c2nc3ccc(Cl)cn3c2CN2CCc3sccc3C2)C[C@H](C)O1	15	i	31	6	16	-4	0	10
CC(=O)c1ccc(N2CCN(C(=S)Nc3ccccc3F)CC2)cc1	nt	i	-4	-16	-8	1	0	1
CN(C(=O)c1cccc(NC(=O)Cc2cccc(NC(=O)C3CCCN(C(=O)C4CC4)C3)c2)c1)C1CCC1 (stereo unspecified)	-14	nt	nt	nt	nt	0	0	-17
CCC(=O)c1ccc(OCC(O)CN2C(=O)NC(C)(C)C2=O)cc1 (stereo unspecified)	-5	i	0	-22	3	-3	7	9
Cc1cc(C)cc(NC(=O)C(OC(=O)c2cccs2)c2ccccc2)c1 (stereo unspecified)	-8	i	2	-11	-1	-2	-1	11
Cn1c2c(c(=O)n(C)c1=O)C(NS(=O)(=O)c1ccccc1)(C(F)(F)F)C(=O)N2 (stereo unspecified)	-5	i	1	-11	-5	-1	2	nt
Cc1ccc(NS(=O)(=O)c2ccc(NC(=O)C3CCCO3)cc2)cc1 (stereo unspecified)	-26	i	-8	5	-2	-1	-7	-7
